# TRPML1 agonist: qHTS for Agonists of the Human Mucolipin Transient Receptor Potential 1 (TRPML1) | Mucolipin-1 (Homo sapiens), Q9GZU1 | TRPML1-expressing cells, Ca2+ dye fluorescence, FDSS; host cell line not named in the record; reference of the full effect not given here | activation, % (concentration not given with the values) | 0.12% of 410,000 active | AID 624414, 2012; in the data active = activation above about 50%; inconclusive = about 30% to 50%; inactive = below about 30%; also: 0% is about no effect; the text of the record puts the active cut at 80%
# Target sequence (Q9GZU1 whole entry, looked up): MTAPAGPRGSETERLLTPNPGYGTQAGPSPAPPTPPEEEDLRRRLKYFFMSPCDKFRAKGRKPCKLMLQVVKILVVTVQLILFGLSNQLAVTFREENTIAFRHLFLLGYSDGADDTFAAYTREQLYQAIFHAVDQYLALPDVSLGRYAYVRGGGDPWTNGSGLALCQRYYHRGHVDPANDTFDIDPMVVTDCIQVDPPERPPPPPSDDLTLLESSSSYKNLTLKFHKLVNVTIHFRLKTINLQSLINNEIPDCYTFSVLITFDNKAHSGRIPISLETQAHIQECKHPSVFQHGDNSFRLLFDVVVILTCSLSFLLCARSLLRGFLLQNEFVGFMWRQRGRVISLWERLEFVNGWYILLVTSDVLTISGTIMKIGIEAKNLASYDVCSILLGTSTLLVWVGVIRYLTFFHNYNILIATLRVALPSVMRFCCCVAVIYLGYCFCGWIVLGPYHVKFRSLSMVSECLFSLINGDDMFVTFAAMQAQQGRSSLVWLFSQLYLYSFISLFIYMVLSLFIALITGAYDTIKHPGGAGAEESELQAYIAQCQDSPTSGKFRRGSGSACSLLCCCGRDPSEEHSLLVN
#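 In this qHTS format, compounds were pin-transferred onto Ca8-dye-loaded TRPML1-DL cells induced with Tet overnight, and intracellular Ca2+ fluorescence was recorded kinetically for 110 s after a 10 s baseline. A subsequent 4uM final 54-4 (EC80) addition followed by a second 110 s read served as the antagonist phase.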
# D2 ag: Beta-Arrestin HTS for Positive Allosteric Modulators of the Human D2 Dopamine Receptor: Agonists. DiscoveRx PathHunter D2 beta-arrestin, luminescence, 90 min; 100% = 57 uM dopamine signal. 0.084% of 360,000 active. D(2) dopamine receptor (Homo sapiens), P14416. activation, % (concentration not given with the values); in the data active = activation above about 40%; inconclusive = about 15% to 40%; inactive = below about 15%; also: compound concentration not given in the record; the text of the record calls up to 30% inactive
# Target sequence (P14416 whole entry, looked up): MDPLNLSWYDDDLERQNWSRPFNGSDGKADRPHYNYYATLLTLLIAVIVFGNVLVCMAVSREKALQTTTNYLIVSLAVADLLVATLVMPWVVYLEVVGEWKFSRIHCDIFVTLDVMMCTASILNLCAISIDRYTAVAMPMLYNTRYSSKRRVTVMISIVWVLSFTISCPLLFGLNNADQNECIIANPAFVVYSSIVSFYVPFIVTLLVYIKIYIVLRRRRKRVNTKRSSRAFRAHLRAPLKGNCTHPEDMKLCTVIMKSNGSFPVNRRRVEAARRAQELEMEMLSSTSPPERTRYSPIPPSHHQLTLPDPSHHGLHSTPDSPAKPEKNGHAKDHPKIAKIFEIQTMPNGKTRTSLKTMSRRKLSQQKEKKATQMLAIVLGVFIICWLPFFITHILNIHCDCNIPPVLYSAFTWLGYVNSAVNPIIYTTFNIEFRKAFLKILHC
#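 Agonist mode: compounds alone added to overnight-plated D2 PathHunter cells for 90 min at 37 C, with 57 uM final dopamine (EC100) defining full response. Beta-arrestin recruitment detected by chemiluminescent reagent, read after 1 h at ambient temperature.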
# PINK1 modulator: A Quantitative High throughput Screen to Identify Chemical Modulators of PINK1 Expression | PINK1 immunofluorescence, high-content cytometry, 24 h | Potency, µM (titrated, usually from 76.6 µM), inactives show at the highest dose activation (PINK1 increase), most hits filed as activators | 0.2% of 410,000 active | AID 624263, 2012; active = well fitted activation curve with a large enough effect; inconclusive = small, poorly fitted or top-dose-only effect; inactive = flat fitted curve, though single readings scatter; cell line not stated here;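 also: potency is read from the fitted curve at half-maximal effect; % of control where 0% means no effect; nearly all actives have a fitted effect of over 65% in size; a mitochondrial uncoupler was the plate control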
#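 Compound titrations (5 concentrations, 24 h) on a stable cell line; DMSO and CCCP controls. Endpoint: fixed-cell PINK1 immunofluorescence with mitochondrial, cell and nuclear markers, scanned by microplate cytometer.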
# D2 potentiator: Beta-Arrestin HTS for Positive Allosteric Modulators of the Human D2 Dopamine Receptor: Potentiators; 0.23% of 360,000 active; AID 624464, 2012; potentiation, % (concentration not given with the values); DiscoveRx D2 beta-arrestin cells, luminescence, 90 min; 100% = 57 uM dopamine signal; active = potentiation of 50% or more; inconclusive = 30% to 50%; inactive = 30% or less;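 also: compound concentration not given in the record; tested on top of an EC20 dose of dopamine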
#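 PathHunter D2 cells, attached overnight at 37 deg C, received compound in DMSO plus dopamine at EC20 (50 nM final) for 90 min at 37 deg C. Beta-arrestin recruitment was read as luminescence after 1 h with detection reagent at ambient temperature.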
# Six1-Eya2 inh: qHTS Assay for Inhibitors of the Six1/Eya2 Interaction. Homeobox protein SIX1 (Homo sapiens) + Protein phosphatase EYA2 (Homo sapiens), …. AlphaScreen GST-Six1/His-Eya2 binding, biochemical; hits give low values; control for the full effect not named in the record. activity change, % (no concentration beside the values). 0.56% of 360,000 active. AID 651725, 2012; in the data active = activity change below about -65%; inconclusive = about -30% to -65%; inactive = above about -30%; also: % is scaled to controls: 0 for no effect and ±100 for the full control effect; compound concentration not given in the record
#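 Compounds are tested against tagged Six1 and Eya2 proteins bridged by glutathione donor and nickel acceptor beads; after a one-hour incubation at 37 °C without light, AlphaScreen emission is recorded.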
# CtBP-E1A blk: qHTS Assay for Inhibitors of the CtBP/E1A Interaction; CtBP / adenovirus E1A interaction (AlphaScreen); AlphaScreen GST-E1A/His-CtBP binding, 1536-well; hits give low values; control for the full effect not named in the record; activity change, % (no concentration beside the values); 0.49% of 340,000 active; AID 651724, 2012; in the data active means activity change below about -65%; inconclusive means about -30% to -65%; inactive means above about -30%; also: % is scaled to controls: 0 for no effect and ±100 for the full control effect; compound concentration not given in the record
#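 In 5 uL wells, 23 nL compound meets equimolar GST-E1A and His-CtBP (5X stock 125 nM each) for 2 h, 37 °C. Beads (5X, 50 ug/mL) then 1 h, 37 °C, dark.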
# Starred values were filed as active, the others as inactive; . = no result given; & = joins results of further samples; [ ] = dose if it differs, or a comment.
smiles,TRPML1 agonist,D2 ag,PINK1 modulator,D2 potentiator,Six1-Eya2 inh,CtBP-E1A blk
Cc1nonc1CN(C)C(=O)CC1C(=O)NCCN1Cc1ccc(F)c(F)c1 (stereo not given),-0.2,1.0,1.1%,-2.2,8.9,6.0
CSc1ncccc1C(=O)Nc1ccc2c(c1)OCCO2,-0.1,-2.6,0.9%,-16.2,-4.0,-6.7
CCOc1ccc(C(=O)CN2CCN(S(=O)(=O)c3ccc(OC)cc3)CC2)cc1,-0.4,-2.6,2.6%,-8.4,4.0,6.1
Cc1c(C(=O)NCCCN2CCOCC2)oc2ccc(S(=O)(=O)N3CCOCC3)cc12,1.0,-0.5,-0.4%,-2.9,0.8,4.7
CC(=O)Nc1ccc(NC(=O)c2ccc3c(c2)CCN3S(C)(=O)=O)cc1,1.1,0.7,2.3%,-1.0,-8.2,0.8
O=C(CCCCn1c(=O)[nH]c2ccsc2c1=O)NCc1cccnc1,-0.1,-2.2,-1.1%,-8.4,0.1,0.8
COCCN(CCOC)S(=O)(=O)c1ccc(C(=O)Nc2ccc([N+](=O)[O-])cc2OC)cc1,-0.7,-1.1,-2.2%,0.6,-1.6,-0.2
CC(=O)/C=C1/SC(CC(=O)O)C(=O)N1c1ccccc1 (stereo not given),-0.7,-2.2,-2.4%,-10.1,27.2,0.0
CC1CCN(C(=O)CSc2nc3cccnc3n2C)CC1,-0.5,-1.1,-0.1%,-6.1,21.9,0.0
CCOc1cc(/C=C(\C#N)C(=O)NCC2CCCO2)ccc1OCC(N)=O (stereo not given),0.3,-4.7,-1.2%,-0.8,-7.3,-15.9
Cc1cc(CN2CCN(CCC#N)CC2)c(O)c(C2(C)CCCCC2)c1,2.1,-4.1,3.3%,-8.9,-10.5,-7.8
CCOC(=O)C(C)Oc1cccc2c(=O)n(CC(=O)N3CCN(C(=O)OCC)CC3)ccc12 (stereo not given),-0.7,-0.7,2.1%,5.1,-0.3,3.4
Cc1nn(-c2ccccc2)c(C)c1NC(=O)COC(=O)CCCOc1ccccc1,0.9,-5.3,0.6%,8.3,1.1,-0.3
O=C1NC[C@@H](CCCCN2C[C@H](Cc3ccc(O)cc3)N(CCC3CCCCC3)C(=O)C2=O)N(CC2CCCCC2)C1=O,-0.4,.,1.3%,.,-4.0,-26.8
COc1ccc2c(c1)CCCC21NC(=O)N(CC(=O)NC(=O)NCc2ccccc2)C1=O (stereo not given),0.7,-2.3,0.2%,-4.2,-2.7,-9.0
Cc1cc(C)cc(C(=O)N[C@@H](C)C(=O)N2CCC3(CC2)NCCc2[nH]cnc23)c1,-0.5,-6.6,-1.0%,-7.2,0.4,-6.2

# Compound profiles, from the list above:
# `CCOC(=O)C(C)Oc1cccc2c(=O)n(CC(=O)N3CCN(C(=O)OCC)CC3)ccc12` (stereo not given) is listed with TRPML1 agonist = -0.7; D2 ag = -0.7; PINK1 modulator = 2.1%; D2 potentiator = 5.1; Six1-Eya2 inh = -0.3; CtBP-E1A blk = 3.4
# `COc1ccc2c(c1)CCCC21NC(=O)N(CC(=O)NC(=O)NCc2ccccc2)C1=O` (stereo not given) is listed with TRPML1 agonist = 0.7; D2 ag = -2.3; PINK1 modulator = 0.2%; D2 potentiator = -4.2; Six1-Eya2 inh = -2.7; CtBP-E1A blk = -9.0

# (continued)
smiles,TRPML1 agonist,D2 ag,PINK1 modulator,D2 potentiator,Six1-Eya2 inh,CtBP-E1A blk
O=C(c1ccc(-c2cccc(Cl)c2Cl)o1)N1CCOCC1,0.3,-1.1,0.3%,-7.6,-0.5,-9.1
Cc1cnc(C(=O)OCC(=O)N2CCN(C(=O)c3ccco3)CC2)cn1,0.0,-5.3,0.1%,-4.0,5.3,-9.8
COc1cc(OC)cc(C(=O)NCCSc2c[nH]c3ccccc23)c1,0.8,-0.5,1.9%,-5.6,-6.3,-2.4
COc1ccc2nc(SCC(=O)N3CCN(c4ccc(F)cc4)CC3)c(C#N)cc2c1,-1.3,0.4,-0.5%,-8.0,-15.7,-7.1
OCCN(/C=N/c1nc(-c2ccc(Br)cc2)cs1)CCO,1.6,-1.3,2.8%,-10.2,16.4,0.0
Cc1ccc(S(=O)(=O)Nc2c(C)nn(C)c2C)c(C)c1,-0.5,-1.0,-1.8%,-2.3,7.0,20.4
Cc1cccc(OCC(=O)NNC(=O)c2ccc([N+](=O)[O-])cc2)c1,2.1,2.6,0.3%,-0.2,-0.6,11.8
CC1(C(=O)NCCCN2CCOCC2)Oc2cccnc2NC1=O (stereo not given),-0.3,-4.1,1.5%,-5.2,-6.0,-9.1
CCOCCOc1nc(C)cc(C)c1S(=O)(=O)c1ccccc1C,-0.4,-7.3,0.1%,-2.2,-6.2,-4.4
COc1cccc(-n2c(=O)c3c(C)c(C(=O)N(C)C)sc3n(CC(=O)NCCc3ccc(OC)c(OC)c3)c2=O)c1,0.5&0.7,2.3,-1.1%&0.4%,-5.4,5.9,4.5
COc1ccccc1NS(=O)(=O)c1cccc(C(=O)NCc2ccncc2)c1,-0.8,-0.8,1.0%,2.8,3.5,2.8
COc1ccc(C(=O)NCCCCNC(=O)c2ccc(OC)c(OC)c2)cc1OC,-0.5,0.7,0.4%,-1.3,-8.7,.
Cc1c(CCO)c(=O)n(-c2ccccc2)n1S(=O)(=O)c1ccc(Cl)cc1,0.2,-3.3,-1.0%,-18.5,-1.8,-1.2
COc1ccc(S(=O)(=O)N2CCCCC2)cc1NC(=O)Cn1cnc2c1c(=O)n(C)c(=O)n2C,0.6,-2.4,-0.9%,-8.1,-3.0,-15.5
CCOC(=O)c1sc(C)c2c(=O)n(CCCN3CCOCC3)cnc12,-0.4,0.5,-1.6%,-3.8,1.6,-1.7
Cc1cccc(N(C)S(=O)(=O)c2ccc3[nH]c(=O)c(=O)[nH]c3c2)c1,0.0,-2.2,-1.5%[38.3 µM],-16.4,-0.2,2.4
CCc1nnc(NC(=O)CCC(=O)NC2CCCc3ccccc32)s1 (stereo not given),0.1,0.9,2.2%,15.4,14.4,-0.6
CCc1nc(N)nc(N)c1-c1ccc(Cl)c(N=[N+]=[N-])c1,24.1&24.8,-2.1&1.7,-4.0%&-0.6%,-14.4&17.7,9.2&7.8,-7.0&-10.5
Cc1c(NC(=O)CN2CCCc3ccccc32)c(=O)n(-c2ccccc2)n1C,-0.2,-3.2,2.6%,-6.1,-0.2,-11.9
CCOC(=O)c1cc([N+](=O)[O-])sc1NC(=O)CC,-0.4,0.4,-1.0%,-5.0,0.2,11.3
CCN=C(NCC)SC1CC(=O)N(CCc2ccccc2)C1=O (stereo not given),0.5,-0.8,-0.9%,-2.0,-2.2,-6.2
CCc1cc2c(=O)n(C(C)C(=O)OC3CCCCC3)cnc2s1 (stereo not given),2.1,2.1,2.9%,3.5,19.8,12.5
COc1ccc(OC)c(S(=O)(=O)NC2CCSc3ccccc32)c1 (stereo not given),-0.3,-2.3,-1.3%,-3.1,-6.7,9.8
CN(C)S(=O)(=O)c1ccc(N2CCCC2)c(C(=O)NNC(=O)c2ccc(F)cc2)c1,-0.3,-2.0,3.4%,-14.7,4.1,.
Cc1ccc(C)c(C(=O)CCC(=O)NNC(=O)Cn2nc(C)cc2C)c1,-0.2,-2.7,1.1%,1.2,8.8,0.0
Cc1ccc(COc2cccc3c2CCN(Cc2ccc(F)cc2)C3=O)cc1,1.8,-2.9,15.0%,-7.4,12.6,18.8
COc1ccc(NC(=O)C2CCCN(S(=O)(=O)c3ccc4c(c3)oc(=O)n4C)C2)cc1OC (stereo not given),-0.4,-2.6,2.8%,-3.1,3.4,-5.0
CNS(=O)(=O)c1cc(S(=O)(=O)NC)c2cccc3c2c1NC3=O,0.1,-3.3,0.4%,-36.6,-0.5,.
Cc1cccc(NC(=O)c2ccccc2OCC(=O)c2ccccc2)c1,-0.3,-1.4,0.8%,-16.6,12.9,-1.4
Cc1cccc(N2C(=O)CC(NNc3nc4ccccc4s3)C2=O)c1 (stereo not given),0.7,-3.7,-0.2%,-9.9,2.6,.
Cc1ccc(N(CC(=O)N2CCCC2)S(C)(=O)=O)cc1C,1.2,-4.2,2.1%,-1.9,1.6,-0.6
NS(=O)(=O)c1ccc(NC(=O)Nc2ccccc2)cc1,-0.1,-0.1,0.2%,0.7,5.2,0.2
Cc1cc(C(=O)OCC(=O)N2CCN(c3ccccc3)CC2)c2ccccc2n1,-1.0,-2.7,1.5%,1.8,-8.5,-5.1
Cc1ccc(C(=O)O)cc1S(=O)(=O)N1CCSCC1,-0.5,-1.8,1.7%,-9.2,-0.1,16.6
O=C(Nc1ccc(NC(=O)C2CC2)cn1)c1ccccc1,-0.1,3.7,1.1%,1.0,-14.3,-4.1
COc1ccc(OC)c(-c2cc(C(=O)NCc3cccs3)no2)c1,-0.4,-2.2,-3.2%[38.3 µM],-15.4,-10.2,-17.7
CCC1CCCCN1C(=O)c1cc(S(=O)(=O)N2CCOCC2)ccc1C (stereo not given),0.4,-1.5,-0.9%,-5.3,1.7,-7.0
O=C(/C=C/c1ccco1)OCC(=O)c1ccc(OC(F)F)cc1,0.8,-4.4,1.8%,-0.2,-0.1,9.9
CCn1c2ccccc2c2nnc(SCC(=O)OCN3C(=O)c4ccccc4C3=O)nc21,-0.9,-9.8,-2.7%,13.3,5.1,0.9
O=C(OCc1nc2ccsc2c(=O)[nH]1)c1ccccc1,1.3,-1.8,-3.8%,-13.6,3.0,-0.7
O=C(COC(=O)c1ccc[nH]c1=O)Nc1ccc2c(c1)OC(F)(F)O2,0.6,-0.5,-0.1%,-2.0,11.6,3.3
C=CC[C@@H](CC(=O)N(CCO)Cc1ccccc1)C(=O)N[C@H](COC(=O)[C@@H](CC=C)Cc1ccc(F)cc1)Cc1c[nH]c2ccccc12,1.3,-0.6,0.6%,-6.6,-20.8,0.0
O=C(/C=C\c1cccs1)c1c(O)ccc2ccc(=O)oc12,3.1,-4.2,-1.3%,-38.7,4.0,8.9
COc1cc(C(=O)OCC(=O)Nc2ccc(C(C)=O)cc2)ccc1OCC(=O)N1CCOCC1,-0.2,-4.9,0.9%,2.4,1.0,19.4
COc1ccc(/C=N/n2c(SC)nnc(C(C)(C)C)c2=O)cc1,0.3,0.8,2.8%,-7.0,4.4,-0.7
O=C(CSc1nc(-c2ccco2)cc(C(F)(F)F)n1)Nc1cccnc1,-0.2,1.6,8.9%[38.3 µM],-13.0,-2.1,-0.8
Cc1c(C)c2ccc(OC(C)C(=O)NC3CCN(Cc4ccccc4)CC3)cc2oc1=O (stereo not given),0.0,-3.5,1.8%,-20.0,0.6,-10.7

# Assay outcomes (PubChem)
